CtBP-E1A inh: blocks the CtBP interaction with E1A; 340,000 compounds, 0.49% hits; activity change, % (no concentration beside the values); AlphaScreen GST-E1A/His-CtBP binding, 1536-well; stronger effect = lower value; control for the full effect not named in the record; AID 651724; in the data active means activity change below about -65%; inconclusive means about -30% to -65%; inactive means above about -30%; also: % is scaled to controls: 0 for no effect and ±100 for the full control effect
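Protein mix (5X: 125 nM each GST-E1A, His-CtBP) was incubated with pinned compound 2 h at 37 deg C in dark, in 50 mM Tris pH 8.0 buffer with 300 mM NaCl. Glutathione donor and nickel acceptor beads followed; AlphaScreen signal read after 1 h.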
PINK1 expr mod: changes PINK1 expression; PINK1 immunofluorescence, high-content cytometry, 24 h; Potency, µM (doses to about 76.6 µM), for the others: at the highest dose activation (PINK1 increase), hits mostly activators; 410,000 compounds, 0.2% hits; AID 624263; active = well fitted activation curve with a large enough effect; inconclusive = small, poorly fitted or top-dose-only effect; inactive = flat fitted curve, though single readings scatter; cell line not stated here;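 also: potency is read from the fitted curve at half-maximal effect; % of control where 0% means no effect; nearly all actives have a fitted effect of over 65% in size; a mitochondrial uncoupler was the plate control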
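Stable cell line, 250 cells/well, 12 h attachment; compounds pinned at 5 concentrations, 24 h; CCCP control. Fixed with nuclear dye, primary antibodies 12 h at 10 degrees C, secondary plus cell stain; laser-scanning cytometer read.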
TRPML1 inh: blocks the human TRPML1 channel. AID 624415. TRPML1-inducible cells, Ca2+ dye fluorescence, FDSS; stronger effect = lower value; inhibition of EC80 agonist-evoked calcium signal. Q9GZU1. activity change, negative = inhibition, % (test concentration not listed). 390,000 compounds, 0.02% hits; in the data active means activity change below about -50%; inconclusive means about -30% to -50%; inactive means above about -30%;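 also: stimulus is agonist 54-4 at its EC80 concentration; % is scaled to controls: 0 for no effect and ±100 for the full control effect; compound concentration not given in the record; the text of the record puts the active cut at -80%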
Target sequence (Q9GZU1 whole entry, looked up): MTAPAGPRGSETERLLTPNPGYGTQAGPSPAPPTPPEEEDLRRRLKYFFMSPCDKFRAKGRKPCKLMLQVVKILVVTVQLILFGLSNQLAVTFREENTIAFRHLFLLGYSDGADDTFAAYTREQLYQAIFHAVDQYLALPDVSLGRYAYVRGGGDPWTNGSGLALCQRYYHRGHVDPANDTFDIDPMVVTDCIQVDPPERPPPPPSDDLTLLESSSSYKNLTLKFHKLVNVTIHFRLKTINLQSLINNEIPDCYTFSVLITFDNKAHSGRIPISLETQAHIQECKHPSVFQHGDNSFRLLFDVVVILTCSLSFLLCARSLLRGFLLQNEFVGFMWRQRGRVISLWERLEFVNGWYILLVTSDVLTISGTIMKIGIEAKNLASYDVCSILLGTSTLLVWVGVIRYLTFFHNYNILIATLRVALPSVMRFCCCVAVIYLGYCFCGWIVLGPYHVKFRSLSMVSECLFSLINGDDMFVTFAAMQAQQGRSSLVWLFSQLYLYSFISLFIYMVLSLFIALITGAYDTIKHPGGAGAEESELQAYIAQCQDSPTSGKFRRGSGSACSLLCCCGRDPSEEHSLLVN
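Tet-induced TRPML1-DL cells loaded with Ca8 no-wash calcium dye were read kinetically on FDSS. Compound addition was followed by EC80 agonist 54-4 (4 uM final); inhibition was read over 110 s.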
D2 ag: human D2 receptor agonism in beta-arrestin assay | DiscoveRx PathHunter D2 beta-arrestin, luminescence, 90 min; 100% = 57 uM dopamine signal | activation, % (test concentration not listed) | 360,000 compounds, 0.084% hits; in the data active = activation above about 40%; inconclusive = about 15% to 40%; inactive = below about 15%; also: compound concentration not given in the record; the text of the record calls up to 30% inactive
Target sequence (P14416 whole entry, looked up): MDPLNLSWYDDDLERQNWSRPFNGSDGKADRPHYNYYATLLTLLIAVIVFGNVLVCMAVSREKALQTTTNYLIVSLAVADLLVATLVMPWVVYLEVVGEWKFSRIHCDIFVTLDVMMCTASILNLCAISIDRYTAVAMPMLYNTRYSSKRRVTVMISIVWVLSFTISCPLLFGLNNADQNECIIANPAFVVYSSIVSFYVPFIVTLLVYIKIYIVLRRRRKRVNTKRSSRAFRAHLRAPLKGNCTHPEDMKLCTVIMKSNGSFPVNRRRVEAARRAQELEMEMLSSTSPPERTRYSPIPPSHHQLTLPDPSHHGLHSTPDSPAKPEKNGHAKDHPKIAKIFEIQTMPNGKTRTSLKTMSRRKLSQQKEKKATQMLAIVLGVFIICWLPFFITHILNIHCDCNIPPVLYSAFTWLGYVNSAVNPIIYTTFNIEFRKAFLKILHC
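Agonist mode: compounds alone added to overnight-plated D2 PathHunter cells for 90 min at 37 C, with 57 uM final dopamine (EC100) defining full response. Beta-arrestin recruitment detected by chemiluminescent reagent, read after 1 h at ambient temperature.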
Six1-Eya2 inh: Six1/Eya2 interaction inhibition. AlphaScreen GST-Six1/His-Eya2 binding, biochemical; stronger effect = lower value; control for the full effect not named in the record. activity change, % (concentration not given with the values). 360,000 compounds, 0.56% hits. AID 651725; in the data active = activity change below about -65%; inconclusive = about -30% to -65%; inactive = above about -30%; also: % is scaled to controls: 0 for no effect and ±100 for the full control effect
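AlphaScreen luminescence read after one hour at 37 °C in darkness. Pin-transferred compounds met GST-Six1 and His-Eya2 protein (5X stock 250 nM/500 nM) plus glutathione donor and Ni-chelate acceptor beads (5X, 50 ug/mL).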
TRPML1 agonist: agonists of human TRPML1 channel; Q9GZU1; 410,000 compounds, 0.12% hits; AID 624414; activation, % (test concentration not listed); TRPML1-expressing cells, Ca2+ dye fluorescence, FDSS; host cell line not named in the record; reference of the full effect not given here; in the data active = activation above about 50%; inconclusive = about 30% to 50%; inactive = below about 30%; also: 0% is about no effect; the text of the record puts the active cut at 80%
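Tetracycline-induced TRPML1-DL cells are seeded and incubated overnight before loading with a no-wash Ca2+ dye and quencher. Agonist activity is taken from the 110 s fluorescence read following compound pin-transfer on an FDSS, before EC80 54-4 challenge.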
An asterisk follows results filed as active; ? = inconclusive; nt = no result given; [ ] = another dose, or the depositor's remark. An unsorted share of the library; about 1% have a hit in one of these screens.

nr	compound	CtBP-E1A inh	PINK1 expr mod	TRPML1 inh	D2 ag	Six1-Eya2 inh	TRPML1 agonist
1	COc1ccc(S(=O)(=O)N2CCN(CC(=O)N3c4ccccc4CC3C)CC2)cc1OC (stereo not drawn)	-2.1	-1.5%	-23.5	1.3	-9.1	-0.3
2	CCCc1cc(=O)[nH]c(SCC(=O)Nc2cc(S(=O)(=O)N(CC)c3ccccc3)ccc2Cl)n1	-23.2	0.5%	-20.3	3.6	-11.4	1.6
3	O=C(CNC(=O)C12CC3CC(CC(C3)C1)C2)N/N=C\c1ccccn1	3.2	3.2%	-14.7	-1.4	11.7	0.5
4	COc1ccc(NS(=O)(=O)c2cccc(C(=O)NCC(c3ccco3)N(C)C)c2)cc1 (stereo not drawn)	-1.9	0.3%	-2.7	0.1	-0.3	-0.1
5	Cc1cc2nc(-c3cccc(NC(=O)c4ccc(Br)o4)c3C)oc2cc1C	9.1	10.4%[38.3 µM]	9.3	-1.4	-1.9	-0.2
6	Nc1ncnc2c1ncn2C1CCCC1	-19.8	0.9%	0.2	-4.7	10.9	0.5
7	Cc1ccc(NC(=O)c2ccc(=O)n(Cc3ccccc3C)c2)c(C)c1	nt	-3.6%	-15.0	nt	nt	1.3
8	Cc1ccc(C2CC(c3ccccc3)=NN2c2ccccc2)o1 (stereo not drawn)	62.2	18.9%	7.4	-5.8	65.7	1.2
9	OCCN1CCN(CC(O)COCC2COc3ccccc3O2)CC1 (stereo not drawn)	0.0	-0.7%	-12.8	-4.0	-0.7	-0.3
10	CCCn1c(=O)c2[nH]cnc2n(-c2ccc(Cl)cc2)c1=O	-5.0	0.0%	9.9	-2.3	2.9	-0.8
11	N#CC1C=Cc2c(ccc3ccccc23)N1C(=O)c1ccccc1 (stereo not drawn)	-6.0	2.9%	7.3	0.8	9.7	2.8
12	COc1ccc(NC(=O)C2CCN(c3cc(-c4ccccc4)nc4ncnn34)CC2)cc1OC	-19.0	2.4%[38.3 µM]	21.3	5.3	-14.5	3.4
13	COc1ccc(N2CCN(Cc3nc4c(c(=O)[nH]c(=O)n4C)n3CCCc3ccccc3)CC2)cc1	?	-2.4%[38.3 µM]	1.5	-3.1	-26.3	0.6
14	COc1ccc(NC2CC(=O)N(C)C2=O)cc1 (stereo not drawn)	1.6	-1.3%	6.8	-1.9	-1.8	0.7
15	O=C(CN1CCN(Cc2ccccc2Cl)C1=O)NCc1ccccc1Cl	nt	0.9%	-7.1	nt	nt	-0.7
16	COc1ccc(CN2CCN(C(=O)c3ccc(S(=O)(=O)NCc4ccco4)cc3)CC2)cc1F	4.5	5.5%	-8.5	4.4	-4.1	-0.2
17	Cc1c(NC(=O)C(C)(C)Oc2ccc(Cl)cc2)cccc1-c1nc2ncccc2o1	nt	0.0%	-10.0	nt	nt	1.7
18	COc1cc(-c2nc(CCNC(=O)c3ccco3)cs2)cc(OC)c1OC	-10.1	-0.8%	6.2	2.5	-5.7	-1.4
19	O=C(Nc1ccccc1N1CCOCC1)c1cccc(Oc2ccccc2)c1	11.4	-1.2%	8.5	-4.2	5.1	0.3
20	C=CCc1ccc(OCCCOc2ccc(C(=O)O)cc2)c(OC)c1	5.5	0.7%	29.9	-0.6	-1.3	0.6
21	Cc1c(C(=O)c2ccccc2)c2ccccn2c1CCC#N	-15.1	0.1%	nt	1.7	-3.3	nt
22	O=C(O)c1cc(-c2ccncc2)nc2ccc(S(=O)(=O)N3CCOCC3)cc12	-18.4	4.1%[38.3 µM]	-23.4	0.7	-24.6	-0.4
23	CN(C)CCCN1C(=O)C(=O)/C(=C(/O)c2ccncc2)C1c1cccc(Br)c1 (stereo not drawn)	5.8	-0.1%	3.9	0.4	17.1	-0.2
24	COc1ccc(NC(=O)N(CCN2CCCC2)Cc2cc3cc(OC)c(OC)cc3[nH]c2=O)cc1	-9.3	0.0%	60.5	2.7	-20.0	-0.4
25	Cc1nn(-c2ccccc2)c(C)c1NC(=O)COC(=O)c1ccc(NC(=O)CC#N)cc1	-6.9	4.0%	-4.3	-0.1	-6.7	0.8
26	N#Cc1ccccc1NC(=S)NC(=O)C1CCC1	-1.1	1.5%	2.4	-4.2	3.3	0.0
27	CSc1cccc(NC(=O)c2ccco2)c1	1.2	-1.2%	5.8	-3.2	-0.5	0.6
28	COc1ccccc1Nc1nc(-c2cccc(N3C(=O)c4ccccc4C3=O)c2)cs1	-13.8	-0.9%	-17.4	-3.2	2.3	0.6
29	O=C(COc1ccc(S(=O)(=O)NCc2ccccc2)cc1Cl)NCC1CCCO1 (stereo not drawn)	1.4	-2.4%[38.3 µM]	15.0	1.7	6.3	0.5
30	CCOC(=O)[C@]12CCC=C1N(Cc1ccc3c(c1)OCO3)C(=O)[C@H](CC(=O)NCc1ccccc1)C2	16.5	-0.2%	nt	nt	-4.9	0.4
31	CCOc1cc(/C=N/O)ccc1OCc1ccc(F)cc1	-2.0	1.1%	26.6	-2.0	2.3	1.1
32	CSc1ccc(CN(C)C(=O)c2cccc(S(=O)(=O)N3CCN(Cc4ccccc4)CC3)c2)cc1	-8.6	0.5%	-8.9	1.3	-20.5	0.7
33	CCS(=O)(=O)n1nc(-c2ccc(Cl)cc2)nc1SC	7.2	2.1%	-1.8	-3.2	5.9	0.1
34	Nc1nc(-c2cc(-c3ccccc3)no2)cs1	nt	0.0%	-24.4	3.9	-2.3	1.8
35	Nc1cc(N)nc(SCc2cccnc2)n1	11.8	nt	-2.8	1.0	2.3	0.5
36	COc1ccccc1CNC(=O)C(=O)NCC1OCCCN1S(=O)(=O)c1ccc(F)cc1C (stereo not drawn)	-2.7	-0.5%	3.3	1.6	-4.6	-0.2
37	O=C(Nc1ccc2oc(=O)ccc2c1)c1cc2ccccc2o1	-0.7	-0.2%	-24.9	-0.5	-2.9	-0.4
38	Cc1ccsc1/C=N/N=C1\C(=O)Nc2ccccc21	-11.1	0.8%	12.0	-2.0	-6.6	1.2
39	COc1ccc(N2CSC3=C(C#N)C(c4cc(OC)c(OC)cc4OC)CC(=O)N3C2)c(OC)c1 (stereo not drawn)	-4.1	-0.6%	20.6	0.9	-11.2	0.9
40	C[C@@H](NC(=O)c1nc[nH]c1C(=O)NCC(=O)OCc1ccccc1)c1ccccc1	-0.1	2.4%	2.3	12.1	-7.8	3.0
41	C=C1C(=O)O[C@@H]2C[C@@H](C)[C@@H]3C=CC(=O)[C@@]3(C)[C@@H](OC(C)=O)[C@H]12	-1.7	-0.8%	-15.5	-4.9	-0.9	0.2
42	O=C(NC1CCCC1)c1cc(-c2ccccc2)nc2ccccc12	2.6	-1.1%	4.0	-6.2	5.5	0.3
43	Cc1ccc(Nc2nc3ccccc3o2)cc1F	7.3	7.3%	-5.0	0.5	-1.6	0.7
44	Cc1ccc(-c2nc(C#N)c(N3CCC(C)CC3)o2)cc1	?	-0.1%	38.8	-1.1	?	3.4
45	CCCCN1C(=O)CC(Nc2ccc(CC)cc2)C1=O (stereo not drawn)	1.2	3.4%[38.3 µM]	0.4	-0.3	-1.7	0.4
46	Nc1cc(=O)nc(SCC(=O)N(C2CCCCC2)C2CCCCC2)n1-c1ccccc1	-6.1	2.9%[38.3 µM]	-14.1	-3.6	-2.9	2.5
47	CCOCc1nnc(NC(=O)c2cc(OC)cc(OC)c2)s1	3.4	-1.3%	44.8	3.9	11.0	1.6
48	Cc1nc(C)n(CC(O)COc2ccc3c(c2)CCC3)n1 (stereo not drawn)	4.0	nt	-17.1	-1.6	1.1	0.2
49	O=C(CSc1nnc(-c2cccs2)n1-c1ccccc1)NCC1CCCO1 (stereo not drawn)	3.0	-2.5%	15.4	-2.4	2.9	-0.9
50	COC(=O)c1ccccc1NC(=O)C1CCN(C(=O)N2CC(C)Oc3ccccc32)CC1 (stereo not drawn)	nt	4.9%	-1.9	nt	nt	0.5
51	CCc1ccccc1NC(=O)NNC(=O)c1ccc2ccccc2c1O	2.2	5.1%	-13.1	-2.7	3.2	0.7
52	COc1ccc(Nc2nc(N3CCOCC3)nc(N3CCOCC3)n2)cc1Cl	0.0	2.6%	14.3	1.1	1.8	1.3
53	O=C(CC1N=C2c3ccccc3N=C(SCc3ccccc3Cl)N2C1=O)NCc1cccs1 (stereo not drawn)	nt	0.0%	2.6	nt	nt	4.0
54	OC(CN1CCN(c2ccc(F)cc2)CC1)c1ccc(Cl)cc1 (stereo not drawn)	-7.4	1.2%	6.9	0.0	-2.2	2.4
55	COc1cc(CNCCO)ccc1OC1CCCC1	16.8	-1.6%[38.3 µM]	12.9	1.8	5.6	-0.3
56	O=C(O)CC(=O)Nc1ccc(Oc2ccc(C(F)(F)F)cn2)c(Cl)c1	-10.6	0.8%	-16.0	0.4	-9.8	-0.2
57	CC(C)(C)c1cc(C(=O)N2CCc3ccccc32)ccn1	19.0	6.9%[38.3 µM]	-7.3	-1.3	10.5	3.3
58	O=C(Nc1cccc(O)c1)N1CCOCC1	8.7	2.7%	46.4	2.7	-0.1	-0.5
59	CN1CCN(c2ccc([N+](=O)[O-])cc2C(=O)c2ccc(Cl)cc2)CC1	2.7	5.6%	-5.2	-1.4	0.6	0.7

Three of these compounds in a different format:
[47] CCOCc1nnc(NC(=O)c2cc(OC)cc(OC)c2)s1
  CtBP-E1A inh = 3.4
  PINK1 expr mod = -1.3%
  TRPML1 inh = 44.8
  D2 ag = 3.9
  Six1-Eya2 inh = 11.0
  TRPML1 agonist = 1.6
[28] COc1ccccc1Nc1nc(-c2cccc(N3C(=O)c4ccccc4C3=O)c2)cs1
  CtBP-E1A inh = -13.8
  PINK1 expr mod = -0.9%
  TRPML1 inh = -17.4
  D2 ag = -3.2
  Six1-Eya2 inh = 2.3
  TRPML1 agonist = 0.6
[52] COc1ccc(Nc2nc(N3CCOCC3)nc(N3CCOCC3)n2)cc1Cl
  CtBP-E1A inh = 0.0
  PINK1 expr mod = 2.6%
  TRPML1 inh = 14.3
  D2 ag = 1.1
  Six1-Eya2 inh = 1.8
  TRPML1 agonist = 1.3

Retrieved one by one from the entries so far:
nr	compound	CtBP-E1A inh	PINK1 expr mod	TRPML1 inh	D2 ag	Six1-Eya2 inh	TRPML1 agonist
46	Nc1cc(=O)nc(SCC(=O)N(C2CCCCC2)C2CCCCC2)n1-c1ccccc1	-6.1	2.9%[38.3 µM]	-14.1	-3.6	-2.9	2.5
45	CCCCN1C(=O)CC(Nc2ccc(CC)cc2)C1=O (stereo not drawn)	1.2	3.4%[38.3 µM]	0.4	-0.3	-1.7	0.4

Assay outcomes: PubChem, National Center for Advancing Translational Sciences (NCATS)
